HNF4A DNA FP – change in binding of human HNF4 alpha to DNA; HNF4a-FITC DNA binding, fluorescence polarization, 1 h; activity change, % at 10 µM; 360,000 tested, 0.3% active; in the data active = activity change above about 30%, passing the limit was not always enough;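 note: controls were the assay level and a saturating level of protein; the project sought stronger binding though the title names inhibitors; some compounds called inactive have numbers as strong as hits; positive values seem to mean higher polarization but the record does not say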
Target sequence (P41235 whole entry, looked up): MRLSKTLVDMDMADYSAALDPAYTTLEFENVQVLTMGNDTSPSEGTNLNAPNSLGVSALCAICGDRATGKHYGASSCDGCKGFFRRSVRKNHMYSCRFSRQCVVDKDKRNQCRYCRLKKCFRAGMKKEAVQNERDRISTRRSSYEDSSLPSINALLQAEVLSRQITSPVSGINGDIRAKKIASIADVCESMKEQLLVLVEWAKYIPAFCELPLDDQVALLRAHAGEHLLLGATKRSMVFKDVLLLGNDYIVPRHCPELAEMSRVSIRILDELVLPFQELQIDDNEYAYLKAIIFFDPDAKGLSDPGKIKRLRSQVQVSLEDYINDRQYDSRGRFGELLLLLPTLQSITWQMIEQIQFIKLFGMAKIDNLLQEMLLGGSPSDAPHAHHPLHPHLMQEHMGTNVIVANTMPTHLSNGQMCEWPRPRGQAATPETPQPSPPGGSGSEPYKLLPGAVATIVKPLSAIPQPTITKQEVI
Active calls of the source: *.

CSc1ccc(CN2CCC2(C)C(=O)NCc2cccs2)cc1 (stereo not given)
  HNF4A DNA FP: -1.2

Cc1ccc(S(=O)(=O)N2C(c3ccccc3)CC(=O)C3CN(S(=O)(=O)c4ccc(Cl)cc4)C(c4ccccc4)CC32)cc1 (stereo not given)
  HNF4A DNA FP: -1.3

O=C(NCCN1CCC(n2c(=O)[nH]c3ccccc32)CC1)c1ccc(F)c(F)c1
  HNF4A DNA FP: -1.3

CC1(C(=O)NS(C)(=O)=O)CCN1C(=O)Cc1ccc(Cl)cc1Cl (stereo not given)
  HNF4A DNA FP: -2.1

O=C1c2ccccc2C(c2nnnn2-c2ccc3c(c2)OCCO3)N1Cc1ccco1 (stereo not given)
  HNF4A DNA FP: -1.6

COc1cc(CNC(=O)c2cc(-c3cc(C)cc(F)c3)n[nH]2)cc(OC)c1
  HNF4A DNA FP: -3.9

CC(=O)Nc1ccc(NC(=O)c2cc(-c3ccc(F)cc3C)n[nH]2)cc1
  HNF4A DNA FP: 5.4

CC(C)C[C@H]1CN([C@@H](Cc2ccc(O)cc2)CN2CCC[C@@H]2CN2C(=S)NC[C@@H]2Cc2ccccc2)C(=S)N1CC1CCCCCC1
  HNF4A DNA FP: -1.8

COc1ccc(-c2cc(NC=O)c3ncc(-c4cccc(C(C)=O)c4)n3c2)cc1
  HNF4A DNA FP: 9.6

CC(=O)Nc1ccc(CN(C)c2c(C)nc3ccc(C(=O)NCCc4ccccn4)cn23)cc1
  HNF4A DNA FP: -3.9

Three structures out of the list, arranged by count of non-hydrogen atoms, smallest number first.
CSc1ccc(CN2CCC2(C)C(=O)NCc2cccs2)cc1 (stereo not given)
  HNF4A DNA FP: -1.2

O=C(NCCN1CCC(n2c(=O)[nH]c3ccccc32)CC1)c1ccc(F)c(F)c1
  HNF4A DNA FP: -1.3

O=C1c2ccccc2C(c2nnnn2-c2ccc3c(c2)OCCO3)N1Cc1ccco1 (stereo not given)
  HNF4A DNA FP: -1.6

Next section.
COc1ccc(CNC(=O)c2cccc3c(-c4cnn(C)c4)coc23)cc1OC
  HNF4A DNA FP: -1.4

C[C@H]1COc2cc(N3CCC[C@H]3CO)ccc2S(=O)(=O)N1
  HNF4A DNA FP: 1.2

Cn1cnc(S(=O)(=O)N2C[C@@H](O)COC[C@@H]3O[C@H](CC(=O)NC4CCC4)CC[C@H]32)c1
  HNF4A DNA FP: 1.6

Cc1ccccc1NC(=O)C1C(=O)Nc2ccccc2C(=O)N1Cc1ccccc1 (stereo not given)
  HNF4A DNA FP: 3.6

CCC/C=C/c1ccc(CN2C(C)C(=O)N(Cc3cn(CCOCOC)nn3)CCS2(=O)=O)cc1 (stereo not given)
  HNF4A DNA FP: -0.3

CCN(CC)C(=O)c1ccc2nc([C@H]3C[C@H](O)[C@@H](CO)O3)[nH]c2c1
  HNF4A DNA FP: -0.2

CCC1Cc2[nH][nH]c(=O)c2C(CC)O1 (stereo not given)
  HNF4A DNA FP: -0.7

CC(C)NC(=O)C1(C)CCN1C(=O)c1cccc(F)c1 (stereo not given)
  HNF4A DNA FP: 0.1

CN(C)c1cccc(NC(=O)C2Cc3c(-c4cccnc4)ccnc3O2)c1 (stereo not given)
  HNF4A DNA FP: -1.3

CCC(=O)Nc1ccc2c(c1)OC[C@@H](C)N(Cc1cccc(F)c1)C[C@@H](C)[C@@H](OC)CN(C)C2=O
  HNF4A DNA FP: -2.4

Some of the entries so far, with values ahead of the structure.
HNF4A DNA FP,compound
0.1,CC(C)NC(=O)C1(C)CCN1C(=O)c1cccc(F)c1 (stereo not given)
1.2,C[C@H]1COc2cc(N3CCC[C@H]3CO)ccc2S(=O)(=O)N1
-0.3,CCC/C=C/c1ccc(CN2C(C)C(=O)N(Cc3cn(CCOCOC)nn3)CCS2(=O)=O)cc1 (stereo not given)
-0.2,CCN(CC)C(=O)c1ccc2nc([C@H]3C[C@H](O)[C@@H](CO)O3)[nH]c2c1
-1.3,CN(C)c1cccc(NC(=O)C2Cc3c(-c4cccnc4)ccnc3O2)c1 (stereo not given)

Other structures follow.
CC(=O)N1C[C@H]2CON(C)[C@H]2C[C@H]1c1ccccc1
  HNF4A DNA FP: 1.1

O=C1NC[C@@H](CCCCN2C[C@H](Cc3ccccc3)N(CCC3CCCCC3)C(=O)C2=O)N(Cc2ccccc2)C1=O
  HNF4A DNA FP: -3.3

C[C@H]1CN([C@@H](C)CO)C(=O)CCCn2nncc2CO[C@H]1CN(C)C(=O)c1ccc2ccn(C)c2c1
  HNF4A DNA FP: 3.2

COc1ccc(-c2csc(N(CCCN(C)C)C(=O)c3ccc(OC)c(OC)c3)n2)cc1
  HNF4A DNA FP: 3.1

O=C(NC1CC1)c1ccccc1NC(=O)c1ccccc1OC(F)F
  HNF4A DNA FP: 2.9

COCCNC(=O)C1(C)Cc2c(-c3cccc(NC(C)=O)c3)ccnc2O1 (stereo not given)
  HNF4A DNA FP: 1.7

CCCNC(=O)C1(C)CCN(Cc2cc(C(F)(F)F)ccc2Cl)C1 (stereo not given)
  HNF4A DNA FP: 1.9

Cc1cnc(C)c(Nc2nc(C(N)Cc3ccc(C(F)(F)F)cc3)cs2)n1 (stereo not given)
  HNF4A DNA FP: 7.0

COc1ccc(C(C)(O)c2nc(-c3ccc(F)c(Cl)c3)cs2)cc1 (stereo not given)
  HNF4A DNA FP: 2.5

COc1ccc(CN2C(=O)CCC2(C)c2nnnn2-c2c(C)cccc2C)cc1OC (stereo not given)
  HNF4A DNA FP: 3.0

CCCN(C(=O)COC(=O)CCC(=O)c1ccccc1)c1c(N)n(Cc2ccccc2)c(=O)[nH]c1=O
  HNF4A DNA FP: 1.6

CN(C(=O)COC(=O)c1cccc(S(=O)(=O)N2CCCCCC2)c1)c1ccccc1
  HNF4A DNA FP: -1.0

CC(C)NC(=O)N(C)C[C@H]1OCCCC[C@@H](C)Oc2ccc(N(C)C)cc2C(=O)N([C@H](C)CO)C[C@@H]1C
  HNF4A DNA FP: 0.5

Cc1ccc(C(O)c2ncc(-c3ccccc3F)[nH]2)cc1F (stereo not given)
  HNF4A DNA FP: 0.5

CCOc1cccc(-c2cc(NCCc3ccccn3)n3nccc3n2)c1
  HNF4A DNA FP: -0.7

C#CCn1cc(CNC[C@H]2O[C@@H](n3cnc4c(=O)[nH]c(N)nc43)[C@H](O)[C@@H]2O)c2ccccc21
  HNF4A DNA FP: -1.0

COCCCN1C(=O)C(CC(=O)NCc2cccc3ccccc23)CC(C(=O)N2CCCCCC2)=C1C (stereo not given)
  HNF4A DNA FP: 5.1

CCN(CC)c1c(C)nc2ccc(C(=O)Nc3cc(-c4ccccc4)ccc3OC)cn12
  HNF4A DNA FP: 3.8

COc1ccc(NC(=O)C2Cc3c(-c4ccc5c(c4)OCO5)ccnc3O2)cc1OC (stereo not given)
  HNF4A DNA FP: -0.8

CCc1ccc(C(O)c2ncc(-c3ccccc3OC)[nH]2)cc1 (stereo not given)
  HNF4A DNA FP: 1.1

COc1ccccc1NC(=O)N(C)C[C@H]1OCc2cnnn2CCCC(=O)N([C@H](C)CO)C[C@@H]1C
  HNF4A DNA FP: 0.7

COc1cccc(C(=O)N2CCC[C@@H]2C(=O)N2CCC[C@H]2C(=O)NCc2ccncc2)c1
  HNF4A DNA FP: 4.6

Nc1[nH]c(C(=O)c2ccccc2)c(-c2ccc([N+](=O)[O-])cc2)c1C(=O)NCCc1c[nH]c2ccccc12
  HNF4A DNA FP: 1.0

N#Cc1ccc(-c2nc3c(Cl)cc(C(F)(F)F)cn3c2Cc2ccccc2C(F)(F)F)cc1
  HNF4A DNA FP: 11

CN(Cc1cnn(-c2ccc(F)cc2)c1)C(=O)[C@H]1O[C@@H](n2cnc3c(N)ncnc32)[C@H](O)[C@@H]1O
  HNF4A DNA FP: -0.7

CC1(C(=O)Nc2ccccc2)Cc2c(-c3cccc(C(N)=O)c3)ccnc2O1 (stereo not given)
  HNF4A DNA FP: 6.0

CC(C)C[C@H]1CNC(=O)C(=O)N1CC1CCN(CC2CCC(C)CC2)CC1 (stereo not given in full)
  HNF4A DNA FP: -2.7

CN(C)C(=O)c1cccc(-c2cccc(-c3nc(C(=O)NCc4ccccc4)cc4c3[C@H](CCO)N(S(=O)C(C)(C)C)C4)c2)c1 (stereo not given in full)
  HNF4A DNA FP: 24

CCN(CC)c1ncnc2c1ncn2[C@H]1CN(Cc2ccc(F)cc2)C[C@@H](CO)O1
  HNF4A DNA FP: -5.9

COc1ccc(NC(=O)C(c2ccc(C(F)(F)F)cc2)n2c(=O)c(-c3ccco3)nc3ccccc32)cc1 (stereo not given)
  HNF4A DNA FP: 16

O=C(OCc1cn([C@H]2CN(C(=O)c3cccs3)[C@@H](c3ccc(Cl)cc3)C[C@@H]2O)nn1)c1ccccc1
  HNF4A DNA FP: 2.9

CCCc1nc2ccc(C(=O)OC)cn2c1Cc1cccc(F)c1
  HNF4A DNA FP: 9.8

O=C(NCc1cccs1)C1Cc2c(-c3ccccc3Oc3ccccc3)ccnc2O1 (stereo not given)
  HNF4A DNA FP: 0.8

O=C(c1cccc(Cl)c1)N1CCC(=O)N([C@H](COCc2cccc(Cl)c2)Cc2ccccc2)CC1
  HNF4A DNA FP: 5.8

COc1cccc(CN2CCC2(C)C(=O)NCCc2ccccn2)c1OC (stereo not given)
  HNF4A DNA FP: -2.6

CCc1nc2c(OCc3ccc(F)c(F)c3)cccn2c1N(C)C(=O)c1ccc(OC)cc1
  HNF4A DNA FP: 0.8

Cc1ccccc1-c1cc2nc(NCCc3ccncc3)n(C)c(=O)c2s1
  HNF4A DNA FP: 2.0

Cc1cccc(S(=O)(=O)N(C)C[C@@H]2OCc3cn(nn3)CCCC(=O)N([C@@H](C)CO)C[C@H]2C)c1
  HNF4A DNA FP: 3.0

O=C(Nc1cccc(Cl)c1)c1ccc2sc([C@@H]3O[C@H](CO)[C@H](O)[C@H](O)[C@H]3O)nc2c1
  HNF4A DNA FP: -0.3

CC(C)C1Cc2[nH][nH]c(=O)c2C(c2ccc(Cl)cc2)O1 (stereo not given)
  HNF4A DNA FP: 2.6

CCCNC(=O)c1cc(C2CCCN(C(=O)c3cc(F)ccc3C)C2)on1 (stereo not given)
  HNF4A DNA FP: 3.5

CCc1nc2ccc(C(=O)NCCN3CCOCC3)cn2c1N(C=O)Cc1ccc(OC)cc1
  HNF4A DNA FP: 3.6

CCOc1ccc(CCN2C(=O)C(=O)N([C@@H](Cc3ccccc3)CN3CCC[C@@H]3CN3C(=O)C(=O)NC[C@@H]3Cc3ccc(O)cc3)C[C@@H]2Cc2ccccc2)cc1
  HNF4A DNA FP: 3.3

CCOC(=O)C1(C)CCN1C(=O)c1ccc(C(F)(F)F)cc1 (stereo not given)
  HNF4A DNA FP: 1.3

CC(C)(C)c1ccc(C(=O)NCc2nnc(SCC(=O)N3CCCC3)o2)cc1
  HNF4A DNA FP: -0.1

CC(=O)Nc1cnc(/C=C\CCCO)cn1
  HNF4A DNA FP: 1.1

COc1ccccc1N1CC(C(=O)OC(C)C(=O)Nc2ccc(F)cc2)CC1=O (stereo not given)
  HNF4A DNA FP: 3.6

O=C(CN1C(=O)C2CC=CCC2C1=O)Nc1ccc(F)c(Cl)c1 (stereo not given)
  HNF4A DNA FP: -0.1

CC(C)=C[C@H]1C[C@H](C)[C@H]2CC[C@H](C)c3c(O)c(O[C@H]4OC[C@H](O)[C@@H](O)[C@@H]4O)c(C)c1c32
  HNF4A DNA FP: 1.6

CCC(c1nc2ccccc2[nH]1)N(Cc1cccnc1)C(=O)c1cc(-c2ccccc2)on1 (stereo not given)
  HNF4A DNA FP: 2.0

O=C(OCc1cn([C@H]2C[C@H](c3ccccc3)N(Cc3cccs3)C[C@@H]2O)nn1)c1ccccc1
  HNF4A DNA FP: -7.9

CC(C)Nc1ncnc2c1ncn2[C@H]1CN(Cc2ccc(F)cc2)C[C@@H](CO)O1
  HNF4A DNA FP: 9.9

COc1cc(CNc2ncnc3c2ncn3[C@H]2CN(Cc3ccccc3)C[C@@H](COC(C)=O)O2)cc(OC)c1OC
  HNF4A DNA FP: 1.6

CC(Cl)=CCn1c(NCCc2ccccc2)nc2c1c(=O)n(C)c(=O)n2C
  HNF4A DNA FP: -1.2

COc1ccc(-c2cc(NC(C)=O)c3ncc(-c4ccccc4)n3c2)c(OC)c1
  HNF4A DNA FP: 1.7

CN1OC[C@@H]2CN(S(=O)(=O)c3ccccc3)[C@H](c3ccc(-n4ccnc4)cc3)C[C@@H]21
  HNF4A DNA FP: -2.4

CCOC(=O)[C@]12CCCC=C1N(Cc1ccc3c(c1)OCO3)C(=O)[C@H](CC(=O)NCc1cccc3ccccc13)C2
  HNF4A DNA FP: -3.6

CN1CCCC(C)(C(=O)Nc2ccc3scnc3c2)C1 (stereo not given)
  HNF4A DNA FP: 3.7

CCc1nc2ccc(C(=O)NCCCN3CCCC3=O)cn2c1N(C)C(=O)C1CCCCC1
  HNF4A DNA FP: -0.6

CCCCN1CC(N2CCN(Cc3ccccc3)CC2)CS1(=O)=O (stereo not given)
  HNF4A DNA FP: -3.3

Cc1cc2nc(-c3ccccc3)c(CC3CCCCC3)n2c(C)c1Br
  HNF4A DNA FP: 0.8

Cc1noc(C)c1-c1ccc(C(=O)NCc2cccc(Cl)c2)c2occc12
  HNF4A DNA FP: 3.0

CC(=O)Nc1cc(-c2cccc(NS(C)(=O)=O)c2)cn2c(-c3ccccc3)cnc12
  HNF4A DNA FP: 1.7

COc1ccc(C(O)c2nc(-c3cncnc3)cs2)cc1 (stereo not given)
  HNF4A DNA FP: -0.1

CCNC(=O)C1CCCN(C(=O)c2cc(OC)c(OC)c(OC)c2)CC1 (stereo not given)
  HNF4A DNA FP: -1.3

Cc1ccc(S(=O)(=O)C[C@@H]2OC[C@H](C(C)C)N2S(=O)(=O)c2ccc(C)cc2)cc1
  HNF4A DNA FP: 0.9

N#Cc1cc2cc(Cl)ccc2[nH]c1=O
  HNF4A DNA FP: -2.0

Cc1ccc(F)c(S(=O)(=O)NC(=O)C2(C)CCN2C(=O)c2ccco2)c1 (stereo not given)
  HNF4A DNA FP: 1.4

Cc1ccccc1NC(=O)Nc1nc(C(N)Cc2ccccc2)cs1 (stereo not given)
  HNF4A DNA FP: 2.4

CCCCCCN1CCN(C2CN(Cc3cn(Cc4cc(C)cc(C)c4)nn3)S(=O)(=O)C2)CC1 (stereo not given)
  HNF4A DNA FP: 7.0

CCS(=O)(=O)NC(=O)C1(C)CCN1C(=O)Cc1ccc(Cl)cc1Cl (stereo not given)
  HNF4A DNA FP: 1.7

COC(=O)C(C(=O)OC)c1ccccc1NS(=O)(=O)c1ccc(C)cc1
  HNF4A DNA FP: 4.6

Compound activity deposited in PubChem BioAssay by Sanford-Burnham Center for Chemical Genomics.

Not all compounds are listed, so the mix of outcomes need not match the whole.
